Compound activity: PubChem BioAssay, Fisher Drug Discovery Resource Center
NPYLR7 agonist = agonists of mosquito NPYLR7 receptor, primary screen, cell-based, Aedes aegypti, calcium fluorescence, mosquito biting behavior. activation, % at 10 µM. 270,000 compounds, 0.15% hits. HEK293T NPYLR7/Galpha15, GCaMP6s calcium fluorescence. AID 1259423, 2018; in the data active = activation above about 40%;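 also: 0% = vehicle and 100% = reference agonist at the receptor; some compounds past the cut are filed as inactive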
NPYLR7 agonist max-min = second read-out of NPYLR7 agonist, no call of its own (marks repeat the call); activation, %; measured here: Max-Min RFU normalised activation; some inactives read as strong as hits;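 span of the calcium signal over five minutes; 0% = vehicle and 100% = native peptide agonist; compound fluorescence can raise it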
* = called active by the depositor; & = joins results of further samples. The list is partial; the hit share may differ from the screen's.

No.	canonical_smiles	NPYLR7 agonist	NPYLR7 agonist max-min
1	COc1ccc2c(c1)-c1cc(Cl)ccc1S(=O)(=O)N2S(=O)(=O)c1ccccc1	4	2
2	CCc1ccc2oc(=O)cc(CN3CCC(C(O)c4nccn4C)CC3)c2c1 (stereo not drawn)	0	-3
3	O=C(CCN1C(=O)c2ccccc2C1=O)Nc1ccc(C(=O)OC2CCCCC2)cc1	-1	-9
4	CC(C)c1nc(CN(C)C(=O)N[C@H](C(=O)N[C@@H](Cc2ccccc2)C[C@H](O)[C@H](Cc2ccccc2)NC(=O)OCc2cncs2)C(C)C)cs1	-7&-1	-9&5
5	CCCOC(=NCCCOC)NC(=O)c1ccc(Cl)c(Cl)c1	13	16
6	COc1ccc(S(=O)(=O)N2CCc3ccccc3C2)cc1N1CCN(C(=O)C2(c3ccc(Cl)cc3)CCCC2)CC1	25	13
7	Oc1[nH]c2ccc(Br)cc2c1N=Nc1ccc(F)cc1	-1	-6
8	CO[C@@]1(NC(=O)CSCC#N)C(=O)N2C(C(=O)O)=C(CSc3nnnn3C)CS[C@@H]21	2&6	-2&-10
9	Cc1cccc(C)c1NC(=O)c1ccc(N)cc1	-14	-22
10	CC1CCN(c2ccc(NC(=O)CN3C(=O)CN(C)C3=O)cc2)CC1	1	20
11	COC(=O)[C@@H]1C[C@@H](N(C)C)CN1S(=O)(=O)c1c(C)noc1C	2	0
12	Cc1cc(C(=O)N=c2sc3cc4c(cc3n2C)OCO4)no1	10	6
13	Cc1ccc(NC(=O)CCN2C(=O)c3ccccc3C2=O)cc1Cl	11	8
14	Cc1ccc(-n2c(C)nn(CN3CCN(c4ccc(F)cc4)CC3)c2=S)cc1	-7	-10
15	Nc1cccc(C(=O)N(Cc2ccccc2)CC2CC2)c1	0	-4
16	Cc1nc(C(C)C)ncc1C(=O)N1C[C@@H]2[C@@H]3CC[C@@H](C3)[C@@H]2C1	11	5
17	Cc1c(C(=O)N2CC(C)OC(C)C2)c(C(F)(F)F)nn1C1CCCN(C)C1 (stereo not drawn)	11	2
18	CN1/C(=C/C=C2/SC(=S)N(CC(=O)O)C2=O)C(C)(C)c2ccccc21	5	-1
19	CCOc1ccc(NC(=O)N(CC(=O)N(Cc2ccccc2)Cc2sccc2C)C(C)C)cc1	15	20
20	CCCCC(=O)Nc1c(C)nc2c(C)cccn2c1=O	5	4
21	CC(C)(C)c1ccc(S(=O)(=O)NC(=O)C2(C)CCN2C(=O)C2(c3ccccc3)CC2)cc1 (stereo not drawn)	2	4
22	O=C(N[C@@H]1CCCCC1NC(=O)C1CCCN(S(=O)(=O)c2cccc(C(F)(F)F)c2)C1)c1ccc(F)cc1 (stereo partly drawn)	1	4
23	COc1ccc(C(CCN(C)C)Oc2ccc(C(=O)N3CCN(C(C)C)CC3)cc2)cc1 (stereo not drawn)	1	17
24	COc1cccc(-c2c(NC(=O)C3CCCCC3)oc3ccccc3c2=O)c1	-6	-6
25	OCCN1CCN(c2nc(Nc3ccc(Cl)cc3)c3nccnc3n2)CC1	1	13
26	CCN(CC)Cc1cc(C(=O)N2CC[C@H](CO)[C@H](O)C2)c(C)o1	-1	-1
27	O=C(NC1CCCN(C(=O)c2ccccc2)C1)N1Cc2ccccc2C1 (stereo not drawn)	0	-4
28	Cc1ccnc(N=Cc2nc(-c3ccc(Cl)cc3)oc2O)c1	16	11
29	O=C(O)Cc1csc(SCc2ccncc2)n1	2	1
30	COc1ccccc1-c1cccc(-c2cccc(NC(=O)C(Cl)Cl)c2)n1	3	-1
31	COCCN(Cc1nc2ccccc2c(=O)[nH]1)C(=O)C=Cc1ccccc1OC	-1	9
32	Cc1cc(C)n(-c2ccc(F)cc2-c2nccn2CCc2cnc[nH]2)n1	8	-1
33	CCOc1ccccc1CN1CCN(Cc2nccn2CC)CC1CCO (stereo not drawn)	18	13
34	N#Cc1c(NC(=O)COC(=O)c2cc([N+](=O)[O-])ccc2Cl)sc2c1CCCCC2	-7	-3
35	COCCN(Cc1ccc(OC)c(OS(=O)(=O)c2cccc(C(F)(F)F)c2)c1)S(=O)(=O)c1cccc2ccccc12	9	17
36	CCCSCCNC1CCNCC1	6	20
37	CCc1nc2ccc(C(=O)NC(C)(C)C)cn2c1N(C)Cc1ccc(Cl)cc1	-5	-8
38	C(=Nn1c(-c2ccc3c(c2)OCCO3)csc1=NC1CCCCC1)c1cccnc1	2	29
39	CC(Oc1ccc(C(C)(C)C)cc1)C(=O)Nc1ccc(S(C)(=O)=O)cc1 (stereo not drawn)	5	4
40	COc1cc(C2Nc3ccccc3C(=O)N2Cc2ccc(C)cc2)cc(O)c1O (stereo not drawn)	13	4
41	COc1ccc(C(=O)N(Cc2cccnc2)c2nc3c(OC)ccc(Cl)c3s2)cc1	7	5
42	O=C(c1ccncn1)N1CCN(c2nc(-c3ccccc3)nc3c2CCC3)CC1	13	8
43	O=C(Nc1ccc(Nc2ccc(-n3cccn3)nn2)cc1)Nc1ccccc1Cl	2	1
44	O=C(Nc1ccc(-c2noc(-c3ccc(F)cc3)n2)cc1)c1ccco1	-3	-5
45	COc1ccccc1N1CCN(CCN(C(=O)c2ccc(F)cc2)c2ccccn2)CC1	5	-43

Along the list, as entered above:
NPYLR7 agonist max-min, compounds 35 to 45, in order: 17, 20, -8, 29, 4, 4, 5, 8, 1, -5, -43
NPYLR7 agonist, compounds 35 to 45, in order: 9, 6, -5, 2, 5, 13, 7, 13, 2, -3, 5

Filtered by structure: the entries above with a CF3 group (three)
No.	canonical_smiles	NPYLR7 agonist	NPYLR7 agonist max-min
17	Cc1c(C(=O)N2CC(C)OC(C)C2)c(C(F)(F)F)nn1C1CCCN(C)C1 (stereo not drawn)	11	2
22	O=C(N[C@@H]1CCCCC1NC(=O)C1CCCN(S(=O)(=O)c2cccc(C(F)(F)F)c2)C1)c1ccc(F)cc1 (stereo partly drawn)	1	4
35	COCCN(Cc1ccc(OC)c(OS(=O)(=O)c2cccc(C(F)(F)F)c2)c1)S(=O)(=O)c1cccc2ccccc12	9	17

More structures:
No.	canonical_smiles	NPYLR7 agonist	NPYLR7 agonist max-min
46	COC(=O)c1ccc2c(c1)N(Cc1ccccc1Cl)C(=O)C(C)O2 (stereo not drawn)	3	3
47	Cn1nnc2c(SCc3ccccn3)ncnc21	0	5
48	Cc1ccc2c(n1)OC(COCc1ccco1)CN(Cc1ccc3c(c1)OCO3)C2=O (stereo not drawn)	-4	5
49	COc1ccc(CNC(=O)c2sc(=O)n(Cc3ccccc3F)c2C)cc1	14	5
50	C=CCNC(=O)CN1CCN(C(=O)Nc2ccc(C(C)C)cc2)CC1	5	3
51	Cc1ccccc1-n1c(SCc2nc(C(=O)NCc3ccc(F)cc3)cs2)nnc1-c1ccco1	12	24
52	COc1cccc(-n2c(=O)[nH]c3c(C(N)=O)nc(-c4cccc(O)c4)nc32)c1	16	6
53	Cc1cc2n(n1)CCN(Cc1cc3n(n1)CCCNC3)C2	1	39
54	O=C1CN(CCc2ccccc2F)C2CS(=O)(=O)CC2N1c1ccccc1 (stereo not drawn)	6	6
55	C=CCN(CC=C)C(=O)CSc1nc2scc(-c3ccc(F)cc3)c2c(=O)n1C	1	0
56	O=S1(=O)NC(=NCC2CC3c4ccccc4C2c2ccccc23)c2ccccc21 (stereo not drawn)	4	3
57	O=C(CNc1ccc(Cl)cc1F)N1CCCc2ccccc21	0	0
58	Cc1ccc(CN(CCc2ccccc2)C(=O)CN(Cc2ccc(Br)cc2)CC2CCCO2)o1 (stereo not drawn)	18	20
59	COc1ccc(OCC(O)Cn2c(C(C)C)[n+](C)c3ccccc32)cc1 (stereo not drawn)	3	2
60	N#Cc1ccccc1OCC(=O)Nc1cc(Cl)ccc1OCC(F)(F)F	5	2
61	Cn1c(NCc2ccccc2)nc2cnc(Nc3ccccc3Cl)cc21	-9	-10
62	O=C(CC1CNCCO1)N1CCC(c2cc(-c3ccccc3Cl)n[nH]2)CC1 (stereo not drawn)	25	18
63	CCCCn1c(=O)c2c(nc3n(CCCOC)c(C)c(C)n23)n(C)c1=O	0	7
64	COc1ccc(N2CC(CN3CCOCC3)Oc3ncccc3C2=O)cc1 (stereo not drawn)	24	32
65	CCOc1ccc(/C=c2\sc3nc(-c4ccc(OC)cc4)nn3c2=O)cc1OC	9	13
66	CC(C)Oc1ccc(C(O)=C2C(=O)C(=O)N(CCN3CCOCC3)C2c2ccco2)cc1 (stereo not drawn)	2	2
67	CC1=C(C(=O)OCCC(C)C)C(c2ccc(OCc3ccccc3)cc2)NC(=O)N1C (stereo not drawn)	11	15
68	O=C(/C=C/c1cccs1)N(CCN1CCOCC1)c1nc2ccc(F)cc2s1	9	5
69	CCOC(=O)[C@@H]1CN2CCN(S(=O)(=O)c3cccs3)C[C@@H]2[C@H]1c1ccccc1	4	10
70	COc1ccc(Br)cc1-c1nc(C(N)=O)c2[nH]c(=O)n(-c3ccccc3)c2n1	11	10
71	CCCC1(C(=O)NCCS(=O)C(C)(C)C)CCC1 (stereo not drawn)	1	-2
72	Cc1cccc(C(=O)NCCc2cc3ccc(C)c(C)c3[nH]c2=O)c1	-2	-5
73	CC(NC(=O)CN1CN(c2ccccc2)C2(CCN(C(=O)Nc3ccc(Cl)c(Cl)c3)CC2)C1=O)c1ccccc1 (stereo not drawn)	1	10
74	CC(C)S(=O)(=O)Oc1ccc(CN(Cc2ccc(F)cc2)C(=O)c2ccccc2Cl)cc1	1	16
75	COc1ccccc1NC(=O)N(Cc1ccc(F)cc1)Cc1ccc(OC)c(OS(=O)(=O)c2ccc(F)cc2)c1	21	26
76	CC(C)(Oc1ccc(Cl)cc1)C(=O)O	-4&-3	-7&-6
77	CCc1nc(Sc2ccc(C(F)(F)F)cn2)n[nH]1	-2	-2
78	CC(CN1CCOCC1)C(=O)Nc1cnc2n1CCCC2 (stereo not drawn)	1	1
79	CCCCc1ccc(NC(=O)c2cccn(OCc3ccccc3F)c2=O)cc1	0	0
80	CC1=CC(C)(C)N(C(=O)CSc2nccc(C)n2)c2ccc(C)cc21	-12	-15
81	CCCC(=O)NCCc1nc2ccccc2n1CC	-8	-10
82	Cc1cc(=O)n(-c2cc(S(=O)(=O)O)ccc2Cl)[nH]1	2	2
83	CC(C)CC(C)n1nccc1NC(=O)c1cncc(Br)c1 (stereo not drawn)	0	-1
84	CN(C)CC(C#N)C(O)c1ccccc1 (stereo not drawn)	17	16
85	CCc1nc2c(OCc3ccccc3)cccn2c1N(C)C(=O)c1ccccc1	1	4
86	Nc1c(Sc2ccccc2)c(Sc2ccccc2)c(N)c2c1C(=O)c1ccccc1C2=O	-6	-10
87	O=C(Nc1cccc(-c2nc3ccccc3o2)c1)c1cccc(Br)c1	-16	-21
88	COc1ccc(Cl)cc1NCc1ccccc1C#N	0	1
89	O=C(O)[C@@H]1CCCN1C(=O)CC12CC3CC(CC(C3)C1)C2	6	4
90	CN1C[C@H]2CN3C(=O)CCN3[C@@H]2c2ccccc21	0	11
91	O=C(c1csc2c1CCCC2)N1CCN(S(=O)(=O)c2ccccc2C(F)(F)F)CC1	1	-6
92	COc1ccccc1CCc1nnc(CCC(=O)NC(C)CCCC(C)(C)O)o1 (stereo not drawn)	-5	-13
93	CSc1ccccc1NC(=O)CC1Sc2ccccc2NC1=O (stereo not drawn)	-6	6
94	CCOC(=O)C1=C(C)N=c2s/c(=C/c3cccc(Br)c3)c(=O)n2C1c1ccccc1 (stereo not drawn)	-7	-13
95	CCCN1CCCN(c2ccc(-c3nc(Cc4ccccc4)no3)cn2)CC1	-2	-5
96	CC1CCCC(N(C)C(=O)c2cnc3onc(C(C)C)c3c2)C1 (stereo not drawn)	4	-1
97	CCCCN(C=O)c1c(CC)nc2c(OCc3ccc(C(F)(F)F)cc3)cccn12	6	8
98	Cc1cc(Cl)ccc1OC(C)C(=O)NCc1cccnc1-n1ccnc1 (stereo not drawn)	13	3
99	Cc1ccccc1C(=O)N1C(C(=O)NC(C)c2ccccc2)COC12CCC(C)CC2 (stereo not drawn)	2	15
100	COCCN1C(=O)COCc2ccc(-c3ccccc3C)cc21	-2	-3
101	CCc1cn[nH]c1C1CCN(C(=O)[C@@H](N)Cc2c[nH]c3ccccc23)CC1	2	2
102	Cc1ccc(Oc2ncccc2CNc2nc(C(F)(F)F)nc(C)c2C)cn1	-1	-5
103	Cc1onc(-c2c(F)cccc2Cl)c1C(=O)NC(=S)NCc1ccccc1	9	8
104	O=C(NCC1OCCc2ccccc21)c1cnn2c1CCCC2 (stereo not drawn)	7	4
105	CNC(=O)Cn1cnc2c(nnn2C)c1=O	0	11

Retrieved by structure from the list above:
No.	canonical_smiles	NPYLR7 agonist	NPYLR7 agonist max-min
13	Cc1ccc(NC(=O)CCN2C(=O)c3ccccc3C2=O)cc1Cl	11	8
50	C=CCNC(=O)CN1CCN(C(=O)Nc2ccc(C(C)C)cc2)CC1	5	3

Additional compounds:
No.	canonical_smiles	NPYLR7 agonist	NPYLR7 agonist max-min
106	CC(C)CNc1nccnc1-c1ccccc1Oc1ccccc1	-6	-10
107	CCCCN(Cc1ccccc1F)C(=O)Cc1cnc[nH]1	0	-4
108	CC(=O)N1CCN(CC(=O)N2N=C(c3ccc(F)cc3)CC2c2ccccc2)CC1 (stereo not drawn)	-2	3
109	O=C(c1ccccn1)C1CCCN(C(=O)c2cn(C3CCCCC3)nn2)C1 (stereo not drawn)	6	2
110	O=C(NCC1CCCOC1)C1(c2cccc(Cl)c2)CCCC1 (stereo not drawn)	8	5
111	O=C(N/N=C1/CCS(=O)(=O)c2ccc(Cl)cc21)C1CC1	-4	-1
112	O=[N+]([O-])c1c(Nc2cc(Cl)ccc2Cl)cc(N2CCOCC2)c2nonc12	-5	-15
113	COc1ccc(NC(=O)c2sc3[nH]c(=O)c(C(=O)O)cc3c2N)cc1	-7	-14
114	CC(C)(C)c1ccc(C(=O)N2CCC2(C)C(=O)Nc2ccc3[nH]ncc3c2)cc1 (stereo not drawn)	9	7
115	C=CCc1c(C)nc2c(-c3ccccc3)cnn2c1NCC1CCCO1 (stereo not drawn)	-1	-3
